MLL AF4-AF9 inh = blocks AF4 peptide binding to human AF9 | 0.47% of 350,000 active | P42568 | inhibition, % at 10 µM | AlphaScreen, biotin-AF4 peptide binding to FLAG-AF9;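 active = every replicate reaching a set inhibition limit, whatever the replicate mean, cut at about 25% in these data; inconclusive = mean inhibition reaches that limit but some replicates miss it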;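 note: 0% = plate neutral control median and 100% = total signal loss; the record names both 10 and 1 µM as test concentration; the first replicate is given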
E coli growth = inhibitors of Escherichia coli growth | OD600, 23 h; hits give low values | OD600 absorbance (test concentration not listed) | 0.21% of 330,000 active | AID 1053175;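 active = OD600 absorbance below the run mean of sample wells minus 3.6 SD, in any replicate, cut at about 0.56 in these data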;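 note: stock transfer was 300 nL into about 60 µL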
RanGTP-Imp inh = disruptors of Ran-importin-beta complex formation – biochemical, FRET, CFP-Ran, YFP-importin-beta, homogeneous, primary screen. AID 2216. inhibition, % (concentration not given with the values). cell-free CFP-Ran/YFP-importin-beta FRET ratio. 1.1% of 300,000 active;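 active = most replicates above 15%; inconclusive = exactly half above 15%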;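 note: 0% = DMSO wells and 100% = Ran loaded with GDP instead of GTP; wells of about 40 µL received 100 nL stock; the first replicate is given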
HNF4A DNA FP = change in binding of human HNF4 alpha to DNA; 0.3% of 360,000 active; activity change, % at 10 µM; HNF4a-FITC DNA binding, fluorescence polarization, 1 h; P41235; in the data active = activity change above about 30%, passing the limit was not always enough;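 note: controls were the assay level and a saturating level of protein; the project sought stronger binding though the title names inhibitors; some compounds called inactive have numbers as strong as hits; positive values seem to mean higher polarization but the record does not say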
Target sequence (P41235 whole entry, looked up): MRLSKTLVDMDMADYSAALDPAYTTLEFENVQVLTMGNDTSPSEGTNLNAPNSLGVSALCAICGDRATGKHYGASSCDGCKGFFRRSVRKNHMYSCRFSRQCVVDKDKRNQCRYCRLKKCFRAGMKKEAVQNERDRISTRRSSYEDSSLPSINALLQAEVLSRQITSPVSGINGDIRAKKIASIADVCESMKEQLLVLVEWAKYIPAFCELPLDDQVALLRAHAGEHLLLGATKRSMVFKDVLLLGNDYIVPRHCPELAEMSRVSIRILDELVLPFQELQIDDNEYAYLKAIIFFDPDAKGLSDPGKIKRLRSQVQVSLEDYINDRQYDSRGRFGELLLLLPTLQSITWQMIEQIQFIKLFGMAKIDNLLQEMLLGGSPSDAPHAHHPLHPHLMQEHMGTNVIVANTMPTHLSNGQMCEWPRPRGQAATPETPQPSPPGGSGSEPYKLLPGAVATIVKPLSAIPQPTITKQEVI
Vif A3G = HIV-1 Vif–A3G interaction blockers – biochemical, TR-FRET, GST-Vif 1-94, biotin-A3G peptide, dose response retest, primary screen (AID 1117319); TR-FRET GST-Vif / biotin-A3G peptide binding; higher % means a stronger effect; test concentration not given here; strong numbers were not always called active; one-dose inhibition, %; IC50 in µM for titrated hits; 0.57% of 260,000 active;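 active = above the screen mean plus three standard deviations and confirmed in dose response; inconclusive = results disagree or hit not tested in dose response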;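 note: Vif residues 1-94 fused to GST binding biotinylated APOBEC3G peptide 110-148; 0% = full assay without inhibitor and 100% = GST in place of GST-Vif; retest series ran down from 100 µM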
UCH37 inh = human UCH37 deubiquitinating enzyme inhibition. Q9Y5K5. purified proteasome/UCH37, Ub-AMC cleavage fluorescence. inhibition, % (test concentration not listed). 0.33% of 330,000 active. AID 588478;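 active = mean of two replicates above 20%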;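 note: 0% = compound-free wells with enzyme and 100% = wells lacking proteasome; stock transfer was 100 nL into about 20 µL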
Target sequence (Q9Y5K5 whole entry, looked up): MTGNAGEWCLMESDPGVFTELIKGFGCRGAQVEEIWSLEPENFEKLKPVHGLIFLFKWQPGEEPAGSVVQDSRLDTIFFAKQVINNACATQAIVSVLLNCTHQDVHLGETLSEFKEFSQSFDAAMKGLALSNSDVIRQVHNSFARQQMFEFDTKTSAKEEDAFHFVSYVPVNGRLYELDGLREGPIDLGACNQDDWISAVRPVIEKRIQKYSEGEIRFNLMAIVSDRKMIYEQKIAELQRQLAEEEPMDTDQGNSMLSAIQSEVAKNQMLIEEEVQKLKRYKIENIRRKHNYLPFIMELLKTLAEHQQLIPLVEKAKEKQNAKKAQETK
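system = Proteasome-associated human UCH37 deubiquitinase | amount = 0.15 nM proteasome as dispensed | medium = pH 7.4 Tris-HCl (50 mM) with ovalbumin, ATP-MgCl2, DTT | incubation = 30 min preincubation with enzyme, 25 min cleavage at room temperature | detection = AMC fluorescence 355/460 nm | read-out basis = percent inhibition | controls = no-proteasome and no-compound wells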
FGF22 binding = FGF22 (human) thermal shift binding; calls only at 9.99 µM; recombinant FGF22 thermal shift, SYPRO orange fluorescence; percent of sucrose octasulfate shift, DMSO zero; 1.5% of 340,000 active; Q9HCT0;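 active = melting point raised past a set limit in the mean and every replicate; inconclusive = no clear call; three in four hits are not shown here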
Target sequence (Q9HCT0 whole entry, looked up): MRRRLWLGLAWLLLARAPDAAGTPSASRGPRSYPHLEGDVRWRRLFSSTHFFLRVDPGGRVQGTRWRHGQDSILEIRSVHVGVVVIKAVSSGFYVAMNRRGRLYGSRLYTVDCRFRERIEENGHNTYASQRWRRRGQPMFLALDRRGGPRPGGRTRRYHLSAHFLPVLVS
The depositor's hits bear a star; & = joins results of further samples.

`COc1ccc(-c2cc(C(F)(F)F)n3ncc(C(=O)O)c3n2)cc1OC` gave E coli growth 0.73, RanGTP-Imp inh -4.0, HNF4A DNA FP 0.3, Vif A3G 5% and UCH37 inh -5.4.
`COCCNC(=O)C(=O)c1cc(C)n(-c2ccc([N+](=O)[O-])cc2)c1C` gave E coli growth 0.7, RanGTP-Imp inh 6.5, HNF4A DNA FP 30, Vif A3G -2% and UCH37 inh 7.9.
Cc1ccc(C(C(=O)NC2CCCCC2)N2CCCC2)cc1 (stereo not drawn) was read as E coli growth 0.73, RanGTP-Imp inh 0.6, HNF4A DNA FP 0.2, Vif A3G -3% and UCH37 inh 0.0.
For CN(Cc1ccccc1)C(=O)COc1cc(=O)n(C)c2ccccc12 the results were E coli growth 0.68, RanGTP-Imp inh 1.4, HNF4A DNA FP -2.0, Vif A3G 2% and UCH37 inh 1.7.
Screening COC(=O)c1c(-c2ccccc2)c(-c2ccccc2)nn(C)c1=O returned MLL AF4-AF9 inh -12, E coli growth 0.66, RanGTP-Imp inh 0.4, HNF4A DNA FP 1.4, Vif A3G 8%, UCH37 inh 0.5 and FGF22 binding inactive.
`COc1cccc(CNc2nc3cc(-c4cccc(C(=O)NCCO)c4)sc3c(=O)n2C)c1` gave MLL AF4-AF9 inh -0.2, HNF4A DNA FP 5.9 and FGF22 binding inactive.
Screening O=C(CNC(=O)/C=C/c1ccccc1)N=Nc1c(O)n(Cc2ccccc2)c2ccccc12 returned MLL AF4-AF9 inh -2.1, E coli growth 0.69, RanGTP-Imp inh -0.4, Vif A3G 13%, UCH37 inh 2.2 and FGF22 binding inactive.
CCSc1cc(N2CCCC2)nc(-c2ccc(F)cc2)n1 was read as E coli growth 0.71, RanGTP-Imp inh 2.1, HNF4A DNA FP 2.3, Vif A3G 27% and UCH37 inh 4.2.
CCOCCCNC(=O)CN1C(=O)c2cccc3cccc1c23 was read as MLL AF4-AF9 inh 0.8, E coli growth 0.63, RanGTP-Imp inh 0.1, HNF4A DNA FP -0.9, UCH37 inh -37 and FGF22 binding inactive.
`CCN(Cc1ccccc1)C(=S)Nc1cc(C(=O)OC)ccc1C(=O)OC` gave MLL AF4-AF9 inh -10, E coli growth 0.65, RanGTP-Imp inh 8.4, HNF4A DNA FP 33*, Vif A3G 10%, UCH37 inh -4.6 and FGF22 binding inactive.
Cc1ccc(S(=O)(=O)N2CCN(C(=S)NCc3ccc4c(c3)OCO4)CC2)cc1 was read as MLL AF4-AF9 inh 0.6, E coli growth 0.73, RanGTP-Imp inh -2.4, HNF4A DNA FP 1.3, Vif A3G 21%, UCH37 inh 4.7 and FGF22 binding inactive.
Screening CCCNC(=O)C1(C)CCCN(Cc2ccc(Cl)cc2)C1 (stereo not drawn) returned MLL AF4-AF9 inh -0.2, HNF4A DNA FP -0.4 and FGF22 binding inactive.

For convenience, some entries already given:
CCOCCCNC(=O)CN1C(=O)c2cccc3cccc1c23 was read as MLL AF4-AF9 inh 0.8, E coli growth 0.63, RanGTP-Imp inh 0.1, HNF4A DNA FP -0.9, UCH37 inh -37 and FGF22 binding inactive.
`CCN(Cc1ccccc1)C(=S)Nc1cc(C(=O)OC)ccc1C(=O)OC` gave MLL AF4-AF9 inh -10, E coli growth 0.65, RanGTP-Imp inh 8.4, HNF4A DNA FP 33*, Vif A3G 10%, UCH37 inh -4.6 and FGF22 binding inactive.
Cc1ccc(S(=O)(=O)N2CCN(C(=S)NCc3ccc4c(c3)OCO4)CC2)cc1 was read as MLL AF4-AF9 inh 0.6, E coli growth 0.73, RanGTP-Imp inh -2.4, HNF4A DNA FP 1.3, Vif A3G 21%, UCH37 inh 4.7 and FGF22 binding inactive.
Screening CCCNC(=O)C1(C)CCCN(Cc2ccc(Cl)cc2)C1 (stereo not drawn) returned MLL AF4-AF9 inh -0.2, HNF4A DNA FP -0.4 and FGF22 binding inactive.

Further results:
For CC(OC(=O)CCN=C1NS(=O)(=O)c2ccccc21)C(=O)Nc1ccccc1F (stereo not drawn) the results were MLL AF4-AF9 inh -0.8, E coli growth 0.68, RanGTP-Imp inh 0.6, HNF4A DNA FP 0.0, Vif A3G -7% and UCH37 inh -0.5.
Cn1cccc1/C=N\NC(=O)C1COc2ccccc2O1 (stereo not drawn) was read as MLL AF4-AF9 inh 7.3, RanGTP-Imp inh -0.7, HNF4A DNA FP -3.2, Vif A3G -1% and FGF22 binding inactive.
Screening O=C(CCC1CCCC1)N1CCN(C(=O)C2CC2)CC1 returned E coli growth 0.72, RanGTP-Imp inh -1.0, HNF4A DNA FP -0.1, Vif A3G 14% and UCH37 inh 0.6.
COc1cccc(CC(=O)Nc2nc(-c3cc(OC)ccc3OC)cs2)c1 was read as MLL AF4-AF9 inh -1.8, E coli growth 0.7, RanGTP-Imp inh 3.2, HNF4A DNA FP 1.5, UCH37 inh 3.7 and FGF22 binding inactive.
S=C(Nc1ccccc1Cl)N(CCCN1CCOCC1)Cc1ccccn1 was read as MLL AF4-AF9 inh -4.4, E coli growth 0.69, RanGTP-Imp inh 2.7, HNF4A DNA FP 1.6, Vif A3G 6%, UCH37 inh 4.7 and FGF22 binding inactive.
Screening COc1ccc(NC(=O)CN(C)C(=O)c2cc3c(s2)CCC(C)C3)cc1 (stereo not drawn) returned MLL AF4-AF9 inh -0.8, E coli growth 0.69, RanGTP-Imp inh 4.7, HNF4A DNA FP 3.6, UCH37 inh 5.4 and FGF22 binding inactive.
Screening COc1cccc(S(=O)(=O)NCc2ccc(C(=O)N3CCN(c4ccccc4)CC3)cc2)c1 returned MLL AF4-AF9 inh 1.6, E coli growth 0.7, RanGTP-Imp inh 2.5, HNF4A DNA FP -3.9, Vif A3G -8%, UCH37 inh 1.7 and FGF22 binding inactive.
O=S(=O)(NCCc1ccccc1F)c1cccc(S(=O)(=O)N2CCOCC2)c1 was read as E coli growth 0.68, RanGTP-Imp inh -0.4, HNF4A DNA FP 0.7, Vif A3G 13% and UCH37 inh -1.1.
CCOC(=O)N1CCN(C(=O)CN(C)S(=O)(=O)c2ccc(OC)c(OC)c2)CC1 was read as E coli growth 0.74, HNF4A DNA FP 5.7, Vif A3G inconclusive and UCH37 inh 0.1.
For Cc1ccc(C(=O)C(OC(=O)CCC(=O)Nc2cccc(C)c2)c2ccccc2)cc1 (stereo not drawn) the results were E coli growth 0.69, RanGTP-Imp inh 7.5, HNF4A DNA FP 2.7, Vif A3G 5% and UCH37 inh 2.1.
CCOC(=O)c1cnc(-c2ccccc2)nc1N was read as MLL AF4-AF9 inh 1.3, E coli growth 0.72, RanGTP-Imp inh inconclusive, HNF4A DNA FP -0.4, Vif A3G 1%, UCH37 inh 0.1 and FGF22 binding inactive.
For CCN(CC)C(=O)C1=C(C)N(Cc2ccc(F)cc2)C(=O)C(CC(=O)NC2CCCC2)C1 (stereo not drawn) the results were MLL AF4-AF9 inh 1.1, HNF4A DNA FP -1.4, Vif A3G 8% and FGF22 binding inactive.
For O=S(=O)(c1cccs1)N1CCN(c2ccccn2)CC1 the results were E coli growth 0.64, RanGTP-Imp inh inconclusive, HNF4A DNA FP 0.2, Vif A3G 2% and UCH37 inh 2.1.
Screening COc1ccc(C=CC(O)CCN2CCC3CCC(C3)C2)cc1 (stereo not drawn) returned MLL AF4-AF9 inh 5.2, E coli growth 0.68, HNF4A DNA FP 7.7, Vif A3G -18%, UCH37 inh 2.9 and FGF22 binding inactive.
Screening C[C@@H]1CN([C@H](C)CO)C(=O)CCCn2cc(nn2)CO[C@H]1CN(C)C(=O)Nc1ccccc1F returned MLL AF4-AF9 inh -4.3&-1.5&-1.0, HNF4A DNA FP 1.1, Vif A3G -1% and FGF22 binding inactive.
`CCOc1ccc(/C=N/NC(=O)Nc2ccccc2)cc1` gave MLL AF4-AF9 inh -0.5, RanGTP-Imp inh 3.0, HNF4A DNA FP 2.8, Vif A3G -4% and FGF22 binding inactive.
Screening O=C(NC1CCCc2ccccc21)c1ccc(Cl)nc1 (stereo not drawn) returned E coli growth 0.73, RanGTP-Imp inh 1.8, HNF4A DNA FP 1.7, Vif A3G 2% and UCH37 inh 0.6.
`OCCC#Cc1ccc(CN2CCN(Cc3ccccc3)C(CCO)C2)cc1` (stereo not drawn) gave MLL AF4-AF9 inh -1.2, E coli growth 0.68, RanGTP-Imp inh 3.1, HNF4A DNA FP 1.3, UCH37 inh 3.4 and FGF22 binding inactive.
For CN1CCN(C(=O)c2cc3c(c(-c4cccc(-c5cccnc5)c4)n2)[C@H](CCO)N(C(=O)CC2CC2)C3)CC1 the results were MLL AF4-AF9 inh -1.7, HNF4A DNA FP -7.2 and FGF22 binding inactive.
For O=C(O)c1ccc(COc2ccccc2/C=C2/NC(=O)N(c3cccc(Cl)c3)C2=O)cc1 the results were MLL AF4-AF9 inh 2.2, E coli growth 0.68, RanGTP-Imp inh -1.4, HNF4A DNA FP -4.4, Vif A3G 32%, UCH37 inh -29 and FGF22 binding inactive.
Screening Nc1cc(N)nc(SCC(=O)NNC(=O)Cc2ccccc2)n1 returned MLL AF4-AF9 inh -1.5, E coli growth 0.71, RanGTP-Imp inh 0.6, HNF4A DNA FP 0.3, Vif A3G -3%, UCH37 inh 4.0 and FGF22 binding inactive.
Screening COc1cccc(CC(=O)OCC(=O)Nc2nnc(-c3ccccc3)o2)c1 returned MLL AF4-AF9 inh -5.9, E coli growth 0.62, RanGTP-Imp inh -1.0, HNF4A DNA FP -1.0, Vif A3G -1% and UCH37 inh 0.5.
`CNc1c(N)n(Cc2ccccc2)c(=O)[nH]c1=O` gave E coli growth 0.67, RanGTP-Imp inh 2.6, HNF4A DNA FP -23, Vif A3G 3% and UCH37 inh -5.3.
For CCCn1cnc2sc(C(N)=O)c(C)c2c1=O the results were E coli growth 0.7, RanGTP-Imp inh -1.5, HNF4A DNA FP 0.3, Vif A3G -2% and UCH37 inh 0.0.
For CCCc1ncc(CN2CCCC(C(=O)Nc3ccc(-c4cccc(OC)c4)cc3)C2)cn1 (stereo not drawn) the results were MLL AF4-AF9 inh -6.4, E coli growth 0.69, RanGTP-Imp inh 0.8, HNF4A DNA FP 3.8, UCH37 inh 3.4 and FGF22 binding inactive.
Screening CC(=O)Nc1ccc(C)cc1 returned E coli growth 0.69, HNF4A DNA FP 3.5, UCH37 inh -0.5 and FGF22 binding inactive.
For COc1ccc(C2(C(=O)NCCc3ccccc3)CCCC2)cc1OC the results were E coli growth 0.69, RanGTP-Imp inh 1.7, HNF4A DNA FP 3.2, Vif A3G 2% and UCH37 inh 0.3.
Cc1ccccc1OCc1n[nH]c(=S)n1Cc1ccccc1 was read as E coli growth 0.65, RanGTP-Imp inh 2.0, HNF4A DNA FP -2.8 and UCH37 inh 1.0.
For CCN1CCN(c2nc3c(C)cccn3c(=O)c2C=C(C#N)C#N)CC1 the results were MLL AF4-AF9 inh 0.6, E coli growth 0.67, RanGTP-Imp inh -54, HNF4A DNA FP -8.8, Vif A3G -7%, UCH37 inh -115 and FGF22 binding inactive.
O=C(Nc1nnc(-c2ccccc2)o1)NC1CCCCC1 was read as E coli growth 0.67, RanGTP-Imp inh -0.1, HNF4A DNA FP 2.9, Vif A3G -4% and UCH37 inh -1.7.
Screening CC1CCCN(S(=O)(=O)c2coc(C(N)=O)c2)C1 (stereo not drawn) returned MLL AF4-AF9 inh -0.4, E coli growth 0.7, RanGTP-Imp inh -2.8, HNF4A DNA FP 2.6, Vif A3G 3%, UCH37 inh -0.4 and FGF22 binding inactive.
`CC(C)Cn1c(SCC(=O)N2CCOCC2)nc2ccccc2c1=O` gave MLL AF4-AF9 inh -1.0, E coli growth 0.69, HNF4A DNA FP -3.1, UCH37 inh 1.3 and FGF22 binding inactive.

Bioassay records (PubChem BioAssay)

An excerpt, so the mix of outcomes need not match the whole.
